Calb FLC: C. albicans growth modulation with fluconazole. C. albicans CaCi-2 (fluconazole-resistant clinical isolate) + fluconazole, Alamar Blue growth, 48 h. growth inhibition, % (concentration not given with the values). 300,000 compounds, 0.57% hits. AID 1979;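 active = most replicates above 75%; inconclusive = exactly half above 75%; inactive = most below 75%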;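 note: all wells also contain fluconazole at 8 µg/ml as a sub-toxic cotreatment; 0% = median of DMSO wells and 100% = median of geldanamycin control wells; wells of about 8 µL received 7.5 nL stock; the first replicate is given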
T cruzi inh: blocks replication of Trypanosoma cruzi; T. cruzi beta-gal in NIH3T3, luminescence, 90 h; inhibition, % (test concentration not listed); 300,000 compounds, 1.4% hits; AID 1885;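 active = mean inhibition across valid replicates above about 55%, limit read from the data; inconclusive = mean below that limit but half or more replicates reach it; inactive = mean below it, under half of replicates reach it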;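 note: signal also drops with host cell toxicity which is not excluded here; 0% = plate median of DMSO wells and 100% = zero luminescence signal; higher percent means less beta-gal luminescence so fewer parasites; stock transfer was 50 nL into about 50 µL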
RanGTP-Impb inh: inhibitors of RanGTP-importin-beta interaction, primary screen, biochemical, FRET, CFP-Ran, YFP-importin-beta, homogeneous; cell-free CFP-Ran/YFP-importin-beta FRET ratio; inhibition, % (no concentration beside the values); 300,000 compounds, 1.1% hits; AID 2216;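 active = most replicates above 15%; inconclusive = exactly half above 15%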;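 note: 0% = DMSO wells and 100% = Ran loaded with GDP instead of GTP; wells of about 40 µL received 100 nL stock; the first replicate is given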
Vif A3G: inhibitors of Vif binding to APOBEC3G peptide, primary screen, biochemical, TR-FRET, GST-Vif 1-94, biotin-A3G peptide, dose response retest (AID 1117319). inhibition, %, or IC50 in µM where a hit was titrated. TR-FRET GST-Vif / biotin-A3G peptide binding; higher % means a stronger effect; test concentration not given here; strong numbers were not always called active. 260,000 compounds, 0.57% hits;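 active = above the screen mean plus three standard deviations and confirmed in dose response; inconclusive = results disagree or hit not tested in dose response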;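 note: Vif residues 1-94 fused to GST binding biotinylated APOBEC3G peptide 110-148; 0% = full assay without inhibitor and 100% = GST in place of GST-Vif; retest series ran down from 100 µM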
Bfl-1 A1 inh: inhibitors of the anti-apoptotic protein A1, read as caspase activation; 330,000 compounds, 0.066% hits; MEF A1-2A-BIM cells, Caspase-Glo 3/7 luminescence, 3 h; percent of clofoctol response, vehicle zero; AID 2462; caspase activation, % (concentration not given with the values);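 active = over half of replicate activation scores above 10%, or exactly half above 10 with the replicate mean above 10; inconclusive = replicate mean below 10 yet half the replicates above 10; inactive = over half of replicates below 10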;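 note: wells of about 30 µL received 50 nL stock; many hits fall short of the cut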
AF4-AF9 inh: MLL-AF4/AF9 protein interaction inhibition. P42568. AlphaScreen, biotin-AF4 peptide binding to FLAG-AF9. inhibition, % at 10 µM. 350,000 compounds, 0.47% hits. AID 651704;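 active = every replicate reaching a set inhibition limit, whatever the replicate mean, cut at about 25% in these data; inconclusive = mean inhibition reaches that limit but some replicates miss it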;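 note: 0% = plate neutral control median and 100% = total signal loss; the record names both 10 and 1 µM as test concentration; the first replicate is given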
Beta cell apopt: blocks beta cell apoptosis | INS-1E cytokine-induced death, ATP luminescence, 48 h; percent of positive-control rescue, neutral wells zero | 300,000 compounds, 0.8% hits | AID 435005 | protection from apoptosis, % (concentration not given with the values);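 active = all replicates at 75% or more, or half of them and the mean; inconclusive = half reach 75% but not the mean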;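 note: 0% = cytokine-treated negative control wells and 100% = positive control rescue; higher means more ATP so stronger rescue from cytokine killing; wells of about 40 µL received 100 nL stock; the first replicate is given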
LANA-H2A inh: blocks KSHV LANA binding to histone H2A/H2B; Q9QR71; cell-free LANA-H2A/H2B peptide, fluorescence polarization; inhibition, % (no concentration beside the values); 320,000 compounds, 0.6% hits; AID 2629; in the data active = inhibition mostly above about 10%, no sharp cut-off; inactive = mostly below about 6.7%;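 note: stock transfer was 7.5 nL into about 10 µL; 0% = median of vehicle wells and 100% = median of positive control wells; one replicate is shown; the record names a cut of 25% in any replicate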
Target sequence (Q9QR71 whole entry, looked up): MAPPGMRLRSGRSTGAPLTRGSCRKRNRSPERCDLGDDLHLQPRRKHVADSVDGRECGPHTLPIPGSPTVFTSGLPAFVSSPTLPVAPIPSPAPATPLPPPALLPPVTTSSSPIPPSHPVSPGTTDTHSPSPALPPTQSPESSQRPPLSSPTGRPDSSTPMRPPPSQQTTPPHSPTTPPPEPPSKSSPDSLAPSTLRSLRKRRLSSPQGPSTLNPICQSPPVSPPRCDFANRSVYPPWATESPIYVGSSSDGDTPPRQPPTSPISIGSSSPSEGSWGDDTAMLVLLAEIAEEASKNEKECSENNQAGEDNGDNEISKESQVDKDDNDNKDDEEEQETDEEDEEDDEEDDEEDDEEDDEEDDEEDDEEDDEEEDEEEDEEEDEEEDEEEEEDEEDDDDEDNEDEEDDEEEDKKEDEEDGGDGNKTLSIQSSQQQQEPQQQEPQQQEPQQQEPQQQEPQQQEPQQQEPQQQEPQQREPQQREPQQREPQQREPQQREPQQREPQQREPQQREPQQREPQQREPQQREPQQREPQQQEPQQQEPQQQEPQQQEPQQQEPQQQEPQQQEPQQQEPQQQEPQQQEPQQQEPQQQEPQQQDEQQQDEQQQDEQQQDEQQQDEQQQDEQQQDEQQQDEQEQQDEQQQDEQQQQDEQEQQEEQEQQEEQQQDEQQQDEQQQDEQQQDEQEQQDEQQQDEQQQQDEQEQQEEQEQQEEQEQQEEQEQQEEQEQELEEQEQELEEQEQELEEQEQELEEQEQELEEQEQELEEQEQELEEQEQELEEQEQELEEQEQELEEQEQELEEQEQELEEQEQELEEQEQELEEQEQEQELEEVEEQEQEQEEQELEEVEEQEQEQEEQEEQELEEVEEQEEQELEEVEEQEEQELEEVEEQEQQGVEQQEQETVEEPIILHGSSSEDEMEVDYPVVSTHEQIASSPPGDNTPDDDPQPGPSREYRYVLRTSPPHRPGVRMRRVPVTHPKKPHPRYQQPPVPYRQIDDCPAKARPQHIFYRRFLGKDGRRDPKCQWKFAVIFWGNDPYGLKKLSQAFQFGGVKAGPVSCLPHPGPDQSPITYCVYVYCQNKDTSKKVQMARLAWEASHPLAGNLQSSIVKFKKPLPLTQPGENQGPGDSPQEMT
* = called active by the depositor; ? = inconclusive; / = not tested or not shown; & = joins results of further samples.

SMILES	Calb FLC	T cruzi inh	RanGTP-Impb inh	Vif A3G	Bfl-1 A1 inh	AF4-AF9 inh	Beta cell apopt	LANA-H2A inh
CCCCc1nc2cc(C(=O)N3CCC(OCCOC)CC3)ccc2o1	-4	-6	1.8	/	0.6	-2.4	-6	-1.6
O=c1[nH]n2cc(-n3cc([N+](=O)[O-])cn3)cnc2c1Br	-5	-4	-2.1	/	-4.5	-0.9	-1	2.1
CC(C(=O)N1CCCC1)N(c1ccccc1)S(C)(=O)=O (stereo not drawn)	-12	-5	3.2	-10%	1.3	0.7	-3	5.8
Cc1ccccc1C(=O)Oc1cc(N)n(S(=O)(=O)c2ccccc2)n1	41	-17	0.1	-10%	1.4	-4.1	-5	-0.7
COc1ccccc1NC(=S)N1CCN(c2ccc(F)cc2)CC1	-1	-19	-1.2	/	-0.8	-8.8	/	-0.2
CCOC(=O)N1CCN(C(=O)COC(=O)c2cc(C)ccc2C)CC1	/	/	/	-5%	-0.3	-0.7	-1	-1.3
CCOC(=O)CSc1nnc(NC(=O)c2ccc3c(c2)OCO3)s1	-7	-18	2.6	/	-1.7	1.1	4	-1.2
COc1ccccc1N1CCN(c2nc(N)c(C#N)c(CC#N)c2C#N)CC1	-1	15	-9.4	12%	1.5	/	1	2.7
COc1ccccc1OCC(=O)Nc1ccccc1C(=O)N1CCCCC1	-1	-4	0.8	?	0.1	-2.6	-3	5.1
CCOC(=O)COc1ccc(S(=O)(=O)N2CCN(c3ccccc3F)CC2)cc1	103*	-1	-3.6	-2%	0.1	/	-4	-4.9
CCOc1ccc(C(=O)NCCCN(CC)CC)cc1	0	-8	-2.2	-4%	-0.2	/	-6	-2.8
CC(=O)NC1C(=O)Nc2c(C)cc(C)cc21 (stereo not drawn)	-1	-16	1.7	4%	-0.4	/	4	-1.1
Cc1nc2ccc(S(=O)(=O)NCC(=O)N3CCOCC3)cc2s1	26	1	7.0	13%	0.7	/	-9	4.2
CCC(=O)Nc1ccccc1-c1nnn(CC(=O)N2c3ccccc3CC2C)n1 (stereo not drawn)	12	7	-2.9	-3%	?	4.7	2	0.7
N#Cc1ccc(OCC(=O)NCC(c2cccs2)N2CCOCC2)cc1 (stereo not drawn)	4	-9	1.0	/	-0.8	0.5	1	2.0
CC1=CC(=O)CC2C1(C)CCC(C)C2(C)CCC(C)CC(=O)O (stereo not drawn)	10	6	-1.2	/	0.2	-1.7	/	5.3
COC(=O)[C@H](C)NC(=O)NCc1ccc(S(N)(=O)=O)cc1	-1	-1	-1.8	?	0.0	-2.1	-3	1.7
O=C(NC1CC1)c1nc(Cn2cc([N+](=O)[O-])cn2)no1	-1	-12	0.2	/	/	1.7	/	/
O=C(COc1cccc(C(F)(F)F)c1)NCCCN1CCCC1=O	-10	-11	-1.1	4%	-0.2	/	-27	-2.4
COc1ccc(C(=O)Nc2ccccc2)cc1NC(=O)c1cccs1	33	11	7.6	/	1.4	1.8	0	-51
Cc1cc(Br)cc(C)c1OCC(=O)NNC(=O)c1cccs1	0	-14	2.1	/	-0.5	0.4	-3	-1.2
c1ccc(-c2nnc3sc(CN4CCc5ccccc54)cn23)cc1	-3	-29	0.9	7%	0.7	/	17	-3.5
C=CCSc1nc2c(c(C3CC=CCC3)c1C#N)CCC2 (stereo not drawn)	-8	27	-1.3	8%	-0.8	/	5	2.0
CCCCn1c(/N=C/c2ccc3c(c2)OCO3)nc2ccccc21	0	-11	4.1	2%	0.2	-26	5	3.9
O=C(c1ccc(-c2ccccc2)c(F)c1)C1CCCN(CCCn2cccn2)C1 (stereo not drawn)	0	45	0.0	?	0.7	12	4	-1.8
Cc1cc(N=Nc2ccc(Cl)cc2)cc(CN2CCCC2)c1O	3	27	5.3	9%	-0.4	49*	10	-3.1
CCCCCN(C(=O)CCC(=O)OCCOc1ccc(OC)cc1)c1c(N)n(CCCC)c(=O)[nH]c1=O	-2	9	-3.1	4%	0.8	/	-1	-1.6
CCN(CC(=O)Nc1cc(Cl)ccc1C)C(=O)C1CC(=O)N(Cc2ccccc2)C1 (stereo not drawn)	18	-9	?	3%	1.3	-5.4	-3	1.4
CCOc1ccc2[nH]c(=O)c(C(c3nnnn3CC3CCCO3)N3CCc4ccccc4C3)cc2c1 (stereo not drawn)	?	48	2.4	30%&-5%	0.6	/	0	0.6
CCOC(=O)c1ccc(NC(=O)C23CCC(C)(C(=O)O2)C3(C)C)cc1 (stereo not drawn)	-3	-13	2.6	26%	-0.1	/	-4	-2.4
COc1ccc(C(=O)c2c3ccc(C(F)(F)F)cc3[n+]([O-])n2CCCC(N)=O)cc1	14	-19	?	/	-0.3	-0.1	0	-4.2
CCOc1ccc(-c2nc(-c3ccccc3C)no2)cc1	-5	-2	-1.2	/	-7.0	/	12	-2.3
CCOc1ccc(N(CC(=O)NCc2ccc(F)cc2)C(=O)c2ccco2)cc1	-15	2	4.2	/	-0.7	2.0	3	-2.8
Cc1ccc(S(=O)(=O)n2ccc(-c3ccc(OCc4c(F)cccc4Cl)cc3)n2)cc1	-24	23	1.9	1%	-0.1	/	3	0.8
CCCCN(CC)C(=O)Cn1nc(Cc2ccncc2)c2ccccc2c1=O	-6	-3	8.9	3%	0.5	-3.3	5	1.9
CSc1nnc(-c2sc3cc(C(F)(F)F)cnc3c2-c2cccnc2)n1C	-6	4	-4.0	12%	0.5	/	1	5.2
Cn1c(=O)c2c(nc(Oc3ccc4c(c3)OCO4)n2Cc2ccc(Br)cc2)n(C)c1=O	-14	-19	0.0	?	-0.6	/	-2	2.2
CCC1Oc2ccccc2N(CC(=O)NC2CCCCC2C)C1=O (stereo not drawn)	3	20	-0.1	/	0.0	-19	6	-6.7
NC(=O)c1ccc(NC(=O)CN2CCN(S(=O)(=O)c3ccc4c(c3)OCCO4)CC2)cc1	/	/	/	/	-0.5	3.2	-1	-2.2
Cc1ccc(-c2noc(/C=C/c3ccccc3)n2)cc1	0	10	4.8	-5%	-2.3	/	1	-3.2
Cc1nc2cc(Nc3nnc(-c4ccccc4)c4ccccc34)ccc2n1C	4	40	4.9	-1%	-0.6	/	7	9.3
CCc1ccc2oc(-c3ccc(OC)cc3)cc(=Nc3c(C)n(C)n(-c4ccccc4)c3=O)c2c1	71*	64*	-0.5	-8%	-8.4	?	11	-5.3
O=C(NCCOc1ccccc1F)c1cc([N+](=O)[O-])ccc1N1CCOCC1	-5	1	-0.2	?	-0.3	0.6	/	-25
CN1CCCN(C(=O)CNC(=O)c2ccc(Cl)cc2Cl)CC1	/	/	/	2%	0.7	4.7	2	-0.3
CCOC(=O)C1CCN(C(=O)CN2C(=O)c3cccnc3Oc3ccccc32)CC1	-3	-9	5.5	?	0.8	-2.9	-4	1.0
Cc1c(Cl)cccc1-c1ccc(/C=N/n2cnnc2)o1	14	-13	-3.6	-2%	0.2	/	-11	2.7
Cc1ccc(S(=O)(=O)N2c3ccccc3-c3c(ssc3=S)C2(C)C)cc1	-8	55*	-3.3	/	1.3	5.9	-11	-2.4
CC1CCN(C2(O)C(=O)Nc3ccc(Br)cc32)CC1 (stereo not drawn)	14	11	-2.5	/	1.2	3.3	-9	2.6
Cc1cc(NC(=O)c2ccccc2)ncc1NC(=O)c1ccco1	-2	-11	7.7	-1%	-14	/	7	-0.7
CCOc1cc(N2CCOCC2)c(OCC)cc1NC(=O)c1[nH]c(C)c(C(C)=O)c1C	/	/	/	6%	-1.4	-2.1	2	-3.8
CC(=O)Nc1cc(C(=O)N2CCN(C)CC2)ccc1Sc1ccc(C)cc1	-3	-5	-3.1	1%	0.3	/	-7	-9.4
COc1ccc(CC(=O)NCC2CCCN(Cc3cccc(C(F)(F)F)c3)C2)cc1 (stereo not drawn)	-3	45	2.3	/	0.7	1.0	/	-6.0
Cc1cc(C)nc(N2CCCC(C(=O)NNC(=O)c3ccncc3)C2)n1 (stereo not drawn)	1	1	1.3	26%	-0.1	2.4	-4	3.5
Cc1cc(NC(=O)c2c(F)c(F)c(F)c(F)c2F)no1	36	-4	23*	0%	0.5	/	2	0.4
Cc1ccc2c(c1)C(=C(C#N)C#N)C(=O)N2CCN1CCCCC1	-16	23	3.5	18%	0.8	9.4	20	-8.0
CCCCNC(=O)COC(=O)c1cc(C)nc2ccccc12	11	-8	14	17%	0.6	8.5	-1	8.8
O=C(C1=C[C@@H](c2ccc(C(F)(F)F)cc2)C[C@@H](OCc2ccc(CO)cc2)O1)N1CCN(Cc2ccc3c(c2)OCO3)CC1	-3	30	-2.2	/	-0.6	7.4&-0.6	6	-8.2
CC(C)(C)N1C(=O)[C@H]2[C@@H](c3ccc(Br)cc3)N3C(=O)N(c4cccc(F)c4)C(=O)[C@@]3(C)[C@H]2C1=O	-5	11	3.0	/	0.0	3.4	-7	3.6
CC(C)NC(=O)C(=O)Nc1cc2c3c(c1)CCC(=O)N3CCC2	-10	-9	-0.2	4%	0.5	-11	0	-0.8
COC(=O)c1ccc(NC(=O)CCCCCn2nnc3ccccc3c2=O)cc1	12	-3	-2.6	-1%	0.2	2.2	-1	4.9
(continued)
SMILES	Calb FLC	T cruzi inh	RanGTP-Impb inh	Vif A3G	Bfl-1 A1 inh	AF4-AF9 inh	Beta cell apopt	LANA-H2A inh
Cc1c(C(=O)OC/C(O)=C(\C#N)c2nc3ccccc3[nH]2)oc2ccc(Br)cc12	1	1	1.8	-2%	-0.4	3.6	0	1.3
CN(Cc1ccccc1)C(=O)COc1cc(Cl)ccc1Cl	19	6	-3.9	-9%	0.2	/	-3	-3.0
O=C(Nc1nnc(CSCc2ccccc2F)s1)c1cccc([N+](=O)[O-])c1	4	-11	3.0	/	-0.7	-3.7	5	-0.2
NC(=O)C1CCN(CC(=O)Nc2cccnc2Cl)CC1	-1	-3	1.0	8%	0.0	-0.3	-1	6.5
CCN(CC)C(=O)C(=O)c1cn(CCOc2ccccc2)c2ccccc12	57	8	2.4	4%	-0.1	3.1	1	-2.4
CCC(C(=O)NC1CCCCC1)n1c2ccccc2c2nc(=O)cc(C)n21 (stereo not drawn)	-8	3	-2.3	/	-0.3	-4.4	3	7.0
O=Nc1c(O)[nH]c2c(F)cccc12	-18	-5	-2.8	-5%	0.6	3.4	/	3.1
O=C(O)/C=C/C(=O)c1ccc(O)cc1	-1	-4	-0.7	/	0.1	0.5	0	2.4
Cc1cc(=O)[nH]c(-c2ccc(Cl)cc2)n1	-4	-9	2.1	/	0.4	-0.3	-3	0.3
NC(=O)c1cc(-c2ccccc2)sc1NC(=O)Cc1ccc(S(=O)(=O)N2CCOCC2)s1	6	14	2.2	-2%	-0.6	/	-3	-1.2
CN1CCCC(CN2c3ccccc3Sc3ccccc32)C1 (stereo not drawn)	/	14	1.6	/	2.0	15	/	-5.3
Cn1c(SCc2nc(-c3ccccc3)no2)nnc1-c1cccs1	1	1	?	26%	-0.6	/	5	-5.2

Source: PubChem (several laboratories)
